Assay outcomes deposited in PubChem by National Center for Advancing Translational Sciences (NCATS).
Imprint erasure: genomic imprint erasure induction; 110,000 tested, 0.02% active; mouse ES Peg3-LacZ reporter, beta-gal luminescence, 40 h; Potency, µM (series often up to 60.7 µM), for the others: top-dose activity change, positive = activation, most hits filed as activators; AID 1948; active means well fitted activation curve with a large enough effect;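 further: 0% = negative control wells on the plate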
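Each well holds 300 Peg3LacZ-Neo (maternal) female ES cells incubated 40 h at 37C, 5% CO2. LacZ is measured by BetaGlo luminescence, with AC50 and maximum efficacy derived from dose-response curves.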
* = called active by the depositor; & = joins results of further samples; [ ] = another dose, or the depositor's remark. Potency means the concentration at half of the fitted maximal effect. These rows are one share of the data, and most or all hits are left out here.

#1 CN1CCN(C(=O)c2ccc(NS(=O)(=O)c3ccccc3)cc2)CC1
  Imprint erasure: -13%

#2 Cc1cccc(CCN2CCC(C(=O)c3ccc(NS(C)(=O)=O)cc3)CC2)n1
  Imprint erasure: -4%

#3 Cc1ccc(/C(=C\CN2CCCC2)c2ccccn2)cc1
  Imprint erasure: -11%&-12%

#4 CN(C)CCCN1c2ccccc2Sc2ccc(C(F)(F)F)cc21
  Imprint erasure: -20%

#5 CC(C)(C)NC(=O)[C@@H]1C[C@H]2CCCC[C@@H]2CN1C[C@H](O)[C@H](Cc1ccccc1)NC(=O)[C@@H](CC(N)=O)NC(=O)c1ccc2ccccc2n1
  Imprint erasure: -4%[16.8 µM]

#6 CN/C(=C\[N+](=O)[O-])NCCSCc1ccc(CN(C)C)o1
  Imprint erasure: -13%

#7 COC(=O)C1=C(C)NC(C)=C(C(=O)OCCN(C)Cc2ccccc2)[C@H]1c1cccc([N+](=O)[O-])c1
  Imprint erasure: -16%[16.8 µM]

#8 C/C=C\C[C@H](C)[C@H](O)[C@H]1C(=O)N[C@@H](CC)C(=O)N(C)CC(=O)N(C)[C@@H](CC(C)C)C(=O)N[C@@H](C(C)C)C(=O)N(C)[C@@H](CC(C)C)C(=O)N[C@@H](C)C(=O)N[C@@H](C)C(=O)N(C)[C@@H](CC(C)C)C(=O)N(C)[C@@H](CC(C)C)C(=O)N(C)[C@@H](C(C)C)C(=O)N1C
  Imprint erasure: -7%[16.8 µM]

#9 CCN(CC)S(=O)(=O)c1ccc(-c2nnc(SCC(=O)N3CCc4ccccc43)o2)cc1
  Imprint erasure: -6%

#10 CC(C)n1c(/C=C\[C@@H](O)C[C@@H](O)CC(=O)O)c(-c2ccc(F)cc2)c2ccccc21
  Imprint erasure: -13%[16.8 µM]

#11 O=C(NC[C@@H]1CCCCN1)c1cc(OCC(F)(F)F)ccc1OCC(F)(F)F
  Imprint erasure: -2%[16.8 µM]

Arranged by value in Imprint erasure (smallest number first): 4 of the compounds above
#4 CN(C)CCCN1c2ccccc2Sc2ccc(C(F)(F)F)cc21
  Imprint erasure: -20%

#6 CN/C(=C\[N+](=O)[O-])NCCSCc1ccc(CN(C)C)o1
  Imprint erasure: -13%

#9 CCN(CC)S(=O)(=O)c1ccc(-c2nnc(SCC(=O)N3CCc4ccccc43)o2)cc1
  Imprint erasure: -6%

#2 Cc1cccc(CCN2CCC(C(=O)c3ccc(NS(C)(=O)=O)cc3)CC2)n1
  Imprint erasure: -4%
